# A1 apoptosis 2: blocks A1, raising caspase activity; AID 2465; 24,000 tested, under 10 active; MEF A1-2A-BIM cells, caspase-Glo luminescence, 3 h; percent of clofoctol response, DMSO zero; caspase activation, % (no concentration beside the values); in the data active = caspase activation above about 5.9%;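 also: wells of about 30 µL received 50 nL stock; the first replicate is given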
#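 system = A1-2A-BIM-expressing MEF cells | quantity = 2500 MEF cells/well | dosing = 50 nL compound per well, pinned | schedule = overnight cell settling, then 3 h compound exposure, 37 °C | signal = luminescence from DEVD-luciferin Caspase-Glo reagent, 1:1 in 50 mM HEPES, 1 h RT | read-out = Caspase-3/7 activation, seen as rise in luminescence signal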
# * hit, by the source's call. These rows are one share of the data. The share of hits here may be higher or lower than overall.
smiles,A1 apoptosis 2
Cc1ccc(S(=O)(=O)Nc2ccc3c(c2)C(=O)N([C@H](C)CO)C[C@H](C)[C@@H](CN(C)S(=O)(=O)c2ccc(Cl)cc2)OCCCC[C@@H](C)O3)cc1,-0.5
C[C@H](CO)N1C[C@H](C)[C@H](CN(C)C(=O)Nc2cccc3ccccc23)Oc2ccc(NC(=O)CCC(F)(F)F)cc2CC1=O,0.2
C[C@@H]1CN([C@@H](C)CO)C(=O)Cc2cc(NC(=O)NC3CCCCC3)ccc2O[C@H]1CN(C)C(=O)Nc1ccccc1,0.2
CCO[C@@H]1OC(C(N)=O)=C[C@H](C2CCCCC2)[C@H]1CCCO,-0.9
COc1cccc(NC(=O)N(C)C[C@H]2OCc3cn(nn3)CCCC(=O)N([C@@H](C)CO)C[C@H]2C)c1,0.1
C[C@@H]1CN([C@H](C)CO)C(=O)Cc2cc(NS(=O)(=O)c3cn(C)cn3)ccc2O[C@H]1CN(C)S(C)(=O)=O,0.8
C[C@H](CO)N1C[C@H](C)[C@@H](CN(C)C(=O)Nc2cccc3ccccc23)Oc2ccc(NC(=O)Cn3cnnn3)cc2CC1=O,0.1
C[C@H]1CN([C@@H](C)CO)C(=O)CCCn2nncc2CO[C@@H]1CN(C)S(=O)(=O)c1ccccc1,0.3
C[C@@H]1CN([C@@H](C)CO)C(=O)c2cc(NC(=O)Cc3ccccc3)ccc2O[C@@H](C)CCCCO[C@@H]1CN(C)C(=O)CCCN(C)C,-0.3
C[C@H]1CCCCO[C@@H](CN(C)Cc2ccc3c(c2)OCO3)[C@@H](C)CN([C@@H](C)CO)C(=O)c2cc(NS(C)(=O)=O)ccc2O1,0.2
Cc1noc(C)c1S(=O)(=O)Nc1cccc2c1O[C@H](CN(C)Cc1ccccc1)[C@H](C)CN([C@@H](C)CO)C2=O,-0.1
O=C(NO)c1cccc(C(=O)N/N=C/c2ccc([N+](=O)[O-])s2)c1,-0.8
C[C@@H]1CCCCO[C@@H](CN(C)C(=O)Cc2ccccc2)[C@H](C)CN([C@H](C)CO)C(=O)c2cc(NC(=O)c3ccccc3)ccc2O1,1.4
COc1ccc(S(=O)(=O)Nc2ccc3c(c2)CC(=O)N([C@H](C)CO)C[C@@H](C)[C@H](CN(C)C(=O)Nc2cccc4ccccc24)O3)cc1,0.0
C[C@H](CO)N1C[C@H](C)[C@@H](CN(C)C(=O)Nc2cccc3ccccc23)Oc2ccc(NS(C)(=O)=O)cc2C1=O,1.5
C[C@@H]1CN([C@@H](C)CO)C(=O)c2cccc(NC(=O)c3ccc(-c4nccs4)cc3)c2O[C@@H]1CN(C)Cc1ccc(C(=O)Nc2ccccc2N)cc1,-0.4
C[C@H]1CN([C@@H](C)CO)C(=O)c2cc(NC(=O)CCC(F)(F)F)ccc2O[C@@H]1CN(C)CC1CCCCC1,0.2
C[C@@H]1CN([C@H](C)CO)C(=O)Cc2cc(N(C)C)ccc2O[C@@H]1CN(C)Cc1ccc(Cl)c(Cl)c1,-2.0
Cc1noc(C)c1S(=O)(=O)Nc1ccc2c(c1)C(=O)N([C@@H](C)CO)C[C@@H](C)[C@@H](CN(C)Cc1ccncc1)O2,-0.6
C[C@H](CO)N1C[C@H](C)[C@H](CN(C)S(C)(=O)=O)OCc2cn(nn2)CCCC1=O,0.1
COc1ccc(S(=O)(=O)N(C)C[C@@H]2Oc3c(NC(=O)Nc4ccc5c(c4)OCO5)cccc3C(=O)N([C@@H](C)CO)C[C@H]2C)cc1,0.3
C[C@@H]1CN([C@H](C)CO)C(=O)CCCn2cc(nn2)CO[C@@H]1CN(C)C(=O)Nc1ccc(N2CCCCC2)cc1,-0.5
C[C@H](CO)N1C[C@H](C)[C@H](CN(C)CC2CC2)OCCCC[C@H](C)Oc2ccc(NC(=O)Nc3ccccc3)cc2C1=O,-1.1
COc1ccc(NC(=O)N(C)C[C@H]2OCCCC[C@@H](C)Oc3ccc(N(C)C)cc3C(=O)N([C@H](C)CO)C[C@@H]2C)cc1,1.6
CC(C)COC(=O)N(C)C[C@H]1OCc2cnnn2CCCC(=O)N([C@H](C)CO)C[C@@H]1C,1.2

# Molecules above that contain nitrogen in an aromatic ring:
smiles,A1 apoptosis 2
COc1cccc(NC(=O)N(C)C[C@H]2OCc3cn(nn3)CCCC(=O)N([C@@H](C)CO)C[C@H]2C)c1,0.1
C[C@@H]1CN([C@H](C)CO)C(=O)Cc2cc(NS(=O)(=O)c3cn(C)cn3)ccc2O[C@H]1CN(C)S(C)(=O)=O,0.8
C[C@H](CO)N1C[C@H](C)[C@@H](CN(C)C(=O)Nc2cccc3ccccc23)Oc2ccc(NC(=O)Cn3cnnn3)cc2CC1=O,0.1
C[C@H]1CN([C@@H](C)CO)C(=O)CCCn2nncc2CO[C@@H]1CN(C)S(=O)(=O)c1ccccc1,0.3
Cc1noc(C)c1S(=O)(=O)Nc1cccc2c1O[C@H](CN(C)Cc1ccccc1)[C@H](C)CN([C@@H](C)CO)C2=O,-0.1
C[C@@H]1CN([C@@H](C)CO)C(=O)c2cccc(NC(=O)c3ccc(-c4nccs4)cc3)c2O[C@@H]1CN(C)Cc1ccc(C(=O)Nc2ccccc2N)cc1,-0.4
Cc1noc(C)c1S(=O)(=O)Nc1ccc2c(c1)C(=O)N([C@@H](C)CO)C[C@@H](C)[C@@H](CN(C)Cc1ccncc1)O2,-0.6
C[C@H](CO)N1C[C@H](C)[C@H](CN(C)S(C)(=O)=O)OCc2cn(nn2)CCCC1=O,0.1
C[C@@H]1CN([C@H](C)CO)C(=O)CCCn2cc(nn2)CO[C@@H]1CN(C)C(=O)Nc1ccc(N2CCCCC2)cc1,-0.5
CC(C)COC(=O)N(C)C[C@H]1OCc2cnnn2CCCC(=O)N([C@H](C)CO)C[C@@H]1C,1.2

# The results go on:
smiles,A1 apoptosis 2
C[C@@H]1CN([C@@H](C)CO)C(=O)Cc2cc(NS(=O)(=O)c3ccc(Cl)cc3)ccc2O[C@H]1CN(C)Cc1ccccc1,0.2
C[C@@H]1CN([C@H](C)CO)C(=O)CCCn2cc(nn2)CO[C@H]1CN(C)C(=O)Nc1ccc2c(c1)OCO2,-0.3
CC(C)NC(=O)Nc1cccc2c1O[C@H](CN(C)Cc1ccccc1)[C@@H](C)CN([C@@H](C)CO)C2=O,0.3
CNC[C@H]1OCCCC[C@@H](C)Oc2ccc(NC(=O)NC(C)C)cc2C(=O)N([C@@H](C)CO)C[C@H]1C,0.1
C=CCNC(=O)[C@H]1[C@@H]2C(=O)O[C@@H](c3ccccc3)[C@@H](c3ccccc3)N2[C@@H](c2ccccc2OCCO)[C@]12C(=O)Nc1ccc(C#CCNC(N)=O)cc12,-0.5
COc1ccc(NC(=O)Nc2cccc3c2O[C@@H](CN(C)S(=O)(=O)c2ccc(OC)cc2)[C@@H](C)CN([C@H](C)CO)C3=O)cc1,-1.6
C[C@H]1CCCCO[C@H](CN(C)Cc2ccncc2)[C@@H](C)CN([C@@H](C)CO)C(=O)c2cc(N(C)C)ccc2O1,1.9
CNC[C@@H]1OCCCC[C@H](C)Oc2ccc(NC(=O)Nc3ccc(F)cc3)cc2C(=O)N([C@@H](C)CO)C[C@H]1C,0.3
C[C@H]1CN([C@@H](C)CO)C(=O)c2cccc(NC(=O)C3CCOCC3)c2O[C@H]1CN(C)CC1CC1,2.1
C[C@H]1CN([C@@H](C)CO)C(=O)Cc2cc(NC(=O)C3CCCCC3)ccc2O[C@H]1CN(C)S(=O)(=O)c1ccc(F)cc1,-0.1
C[C@@H]1CN([C@@H](C)CO)C(=O)Cc2cc(NS(=O)(=O)c3cn(C)cn3)ccc2O[C@@H]1CN(C)Cc1ccncc1,0.7
Cc1ccc(S(=O)(=O)N(C)C[C@H]2OCCCC[C@@H](C)Oc3ccc(NS(=O)(=O)c4c(C)noc4C)cc3C(=O)N([C@H](C)CO)C[C@@H]2C)cc1,1.1
CCCN(C)C[C@H]1OCCCC[C@@H](C)Oc2ccc(NS(=O)(=O)c3cccs3)cc2C(=O)N([C@H](C)CO)C[C@@H]1C,0.4
C[C@@H]1CN([C@@H](C)CO)C(=O)c2cccc(NC(=O)Nc3ccc(C(F)(F)F)cc3)c2O[C@@H]1CN(C)CC1CCCCC1,-1.0
C[C@@H]1CN([C@@H](C)CO)C(=O)c2cccc(NC(=O)c3ccncc3)c2O[C@@H]1CN(C)C(=O)Nc1ccccc1,-0.2
C[C@H]1CCCCO[C@H](CN(C)Cc2ccc(C(=O)O)cc2)[C@@H](C)CN([C@@H](C)CO)C(=O)c2cc(NC(=O)NC3CCCCC3)ccc2O1,0.6
O=C(Nc1ccccc1)C1=C[C@H](C2CC2)C[C@H](OCCCCO)O1,0.5
Cc1ccc(S(=O)(=O)Nc2ccc3c(c2)C(=O)N([C@H](C)CO)C[C@H](C)[C@H](CN(C)C(=O)Nc2ccc(C(F)(F)F)cc2)O3)cc1,1.0
C[C@@H]1CN([C@@H](C)CO)C(=O)c2cc(NC(=O)Cc3ccccc3)ccc2O[C@H]1CN(C)C(=O)Nc1ccccc1,-0.8
C[C@@H]1CN([C@H](C)CO)C(=O)c2cc(NC(=O)Nc3ccc(C(F)(F)F)cc3)ccc2O[C@@H]1CN(C)C(=O)NC1CCCCC1,0.0
C[C@@H]1CN([C@H](C)CO)C(=O)c2cc(NC(=O)Nc3ccc(C(F)(F)F)cc3)ccc2O[C@@H](C)CCCCO[C@H]1CN(C)Cc1ccc2c(c1)OCO2,0.9
COc1ccc(CN(C)C[C@H]2Oc3c(NS(=O)(=O)c4cn(C)cn4)cccc3C(=O)N([C@H](C)CO)C[C@@H]2C)cc1,-0.6
C[C@H](CO)N1C[C@H](C)[C@H](CN(C)C)Oc2c(NS(=O)(=O)c3cn(C)cn3)cccc2C1=O,0.1
C[C@@H]1CN([C@H](C)CO)C(=O)c2cccc(NC(=O)CCCCCC(=O)Nc3ccccc3N)c2O[C@H]1CN(C)C,-1.3
C[C@@H]1CN([C@H](C)CO)C(=O)c2cccc(NC(=O)c3nc4ccccc4s3)c2O[C@@H]1CN(C)Cc1ccncc1,-0.7

C[C@H](CO)N1C[C@H](C)[C@@H](CN(C)S(=O)(=O)c2ccc(Cl)cc2)Oc2ccc(NS(C)(=O)=O)cc2C1=O
  A1 apoptosis 2: 0.7

COc1ccc(CN(C)C[C@H]2Oc3ccc(NS(C)(=O)=O)cc3C(=O)N([C@@H](C)CO)C[C@@H]2C)cc1
  A1 apoptosis 2: 0.6

C[C@@H]1CN([C@@H](C)CO)C(=O)Cc2cc(NC(=O)Nc3ccc(C(F)(F)F)cc3)ccc2O[C@H]1CN(C)S(=O)(=O)c1ccc(Cl)cc1
  A1 apoptosis 2: 0.5

Cc1ccc(S(=O)(=O)Nc2ccc3c(c2)C(=O)N([C@@H](C)CO)C[C@H](C)[C@@H](CN(C)Cc2ccc(-c4ccccc4)cc2)O3)cc1
  A1 apoptosis 2: 0.0

COc1ccc(S(=O)(=O)N(C)C[C@@H]2OCCCC[C@@H](C)Oc3ccc(NS(=O)(=O)c4cn(C)cn4)cc3C(=O)N([C@H](C)CO)C[C@@H]2C)cc1
  A1 apoptosis 2: 1.2

COc1ccc(S(=O)(=O)Nc2ccc3c(c2)C(=O)N([C@@H](C)CO)C[C@@H](C)[C@@H](CN(C)C(=O)NC(C)C)OCCCC[C@@H](C)O3)cc1
  A1 apoptosis 2: -0.4

C[C@@H]1CCCCO[C@H](CN(C)C(=O)Nc2ccc3c(c2)OCO3)[C@@H](C)CN([C@@H](C)CO)C(=O)c2cc(NS(=O)(=O)c3ccc(F)cc3)ccc2O1
  A1 apoptosis 2: 0.7

CC(C)NC(=O)Nc1cccc2c1O[C@@H](CN(C)S(=O)(=O)c1ccc(Cl)cc1)[C@@H](C)CN([C@@H](C)CO)C2=O
  A1 apoptosis 2: -1.3

C[C@@H]1CCCCO[C@H](CN(C)Cc2ccc(Cl)c(Cl)c2)[C@@H](C)CN([C@@H](C)CO)C(=O)c2cc(NC(=O)Cc3ccccc3)ccc2O1
  A1 apoptosis 2: -1.6

C[C@@H]1CCCCO[C@H](CN(C)S(C)(=O)=O)[C@H](C)CN([C@@H](C)CO)C(=O)c2cc(NC(=O)c3ccncc3)ccc2O1
  A1 apoptosis 2: 0.2

O=C(NO)c1ccc(C(=O)N/N=C/c2ccccc2OCCO)cc1
  A1 apoptosis 2: 1.3

Cc1noc(C)c1S(=O)(=O)Nc1ccc2c(c1)CC(=O)N([C@H](C)CO)C[C@H](C)[C@H](CN(C)Cc1ccc(Oc3ccccc3)cc1)O2
  A1 apoptosis 2: 2.0

C[C@H]1CCCCO[C@H](CN(C)Cc2ccc(C(F)(F)F)cc2)[C@@H](C)CN([C@@H](C)CO)C(=O)c2cc(NC(=O)Nc3ccccc3)ccc2O1
  A1 apoptosis 2: 0.0

C[C@@H]1CN([C@@H](C)CO)C(=O)c2cc(NC(=O)Nc3ccc4c(c3)OCO4)ccc2O[C@H]1CN(C)S(=O)(=O)c1ccccc1
  A1 apoptosis 2: 1.3

C[C@@H]1CN([C@H](C)CO)C(=O)c2cccc(N(C)C)c2O[C@H]1CN(C)S(=O)(=O)c1ccc(F)cc1
  A1 apoptosis 2: -1.1

C[C@@H]1CCCCO[C@@H](CN(C)S(=O)(=O)c2cccs2)[C@H](C)CN([C@H](C)CO)C(=O)c2cc(NC(=O)Nc3ccc(C(F)(F)F)cc3)ccc2O1
  A1 apoptosis 2: 0.1

C[C@H](CO)N1C[C@H](C)[C@@H](CN(C)S(=O)(=O)c2cccs2)Oc2ccc(NC(=O)Cc3cn(C)c4ccccc34)cc2CC1=O
  A1 apoptosis 2: -0.3

COc1ccc(S(=O)(=O)N(C)C[C@@H]2Oc3c(NC(=O)c4ccncc4)cccc3C(=O)N([C@H](C)CO)C[C@@H]2C)cc1
  A1 apoptosis 2: 0.8

COc1ccc(S(=O)(=O)N(C)C[C@@H]2OCCCC[C@H](C)Oc3ccc(NC(=O)C4CCCCC4)cc3C(=O)N([C@H](C)CO)C[C@H]2C)cc1
  A1 apoptosis 2: 0.7

COc1cccc(CN(C)C[C@@H]2OCc3cnnn3CCCC(=O)N([C@H](C)CO)C[C@@H]2C)c1
  A1 apoptosis 2: 0.6

Cc1noc(C)c1S(=O)(=O)Nc1ccc2c(c1)C(=O)N([C@@H](C)CO)C[C@H](C)[C@H](CN(C)C(=O)Cc1ccccc1)OCCCC[C@H](C)O2
  A1 apoptosis 2: -0.5
